# Source: PubChem
# Yeast UUG start: alters start codon recognition fidelity in yeast; S. cerevisiae UUG-firefly luciferase reporter, luminescence/redox ratio; activity score, % at 18.7 µM; 350,000 tested, 0.13% active; AID 602363;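 active = replicate mean at a twofold rise or more, about +100% in these data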;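 also: firefly luciferase made from a UUG start codon reports start codon fidelity; reporter light over untreated wells divided by growth signal over untreated wells; some hits fall short of that in this replicate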
# MT1-MMP act inh: inhibitors of human MT1-MMP activation; P50281; HT1080 RFP-PRO-GFP cells, GFP/RFP ratio fluorescence, overnight; percent of plate control window, DMSO zero; GFP/RFP ratio change, % at 20 µM; 360,000 tested, 0.061% active; AID 651647;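 active = GFP/RFP ratio change of at least 30% with cell ATP level not reduced by more than half and red fluorescence within 50% of control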; also: strong numbers were not always called active
#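 Assay system: HT1080 RFP-PRO-GFP cells | Dosing: 20 µM single dose, 1% DMSO | Incubation: Cells overnight before dosing, compound overnight, 37 °C, 5% CO2 | Evaluation: GFP/RFP fluorescence ratio | Control set: DMSO-only wells and HT1080 RFP-L50D-GFP cell wells as references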
# PABP FP inh: blocks human PABP binding to poly(A) RNA | fluorescence polarization | inhibition, % at 35 µM | 290,000 tested, 1% active | AID 2014;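 active = 50% or more with normal probe brightness, or confirmed in later tests; inconclusive = above 50% with abnormal brightness, or retests that disagree; inactive = below 50% or failed in later tests; about a fifth of its hits are not listed in these tables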;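 also: calls also rest on retests at 20 µM and on dose response follow-up; controls were probe without protein and protein plus probe with vehicle; some compounds called inactive have numbers as strong as hits; many hits fall short of the cut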
# Rce1 inhib: blocks yeast Ras-converting enzyme. Q03530. yeast membranes, quenched prenylated peptide cleavage fluorescence. calls only. 290,000 tested, 0.27% active. AID 2563;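 active = fall in fluorescence gain of 50% or more versus controls, with final raw signal at or below 3038400; inconclusive = same 50% fall but final raw signal above 3038400; inactive = fall in fluorescence gain under 50%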;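 also: plate controls were neutral control wells for no effect and wells lacking membranes for full effect; tested at 10 µM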
# Target sequence (Q03530 whole entry, looked up): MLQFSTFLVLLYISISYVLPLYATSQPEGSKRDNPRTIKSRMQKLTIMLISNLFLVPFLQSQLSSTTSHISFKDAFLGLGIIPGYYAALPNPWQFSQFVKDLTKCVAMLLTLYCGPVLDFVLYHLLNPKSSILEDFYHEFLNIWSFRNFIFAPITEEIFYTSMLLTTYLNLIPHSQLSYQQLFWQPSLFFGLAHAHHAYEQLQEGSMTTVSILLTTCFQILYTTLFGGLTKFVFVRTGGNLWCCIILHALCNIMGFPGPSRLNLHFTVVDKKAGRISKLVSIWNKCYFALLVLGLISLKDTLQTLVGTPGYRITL
# HIV Env fusion: blocks HIV Env-driven cell-cell fusion; 360,000 tested, 1.1% active; inhibition, % at 12.3 µM; AID 651610; HeLa-JRFL Env/CEM21 cell fusion, luciferase;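 active = mean replicate inhibition score of at least 50 and every replicate individually at or above 50; inconclusive = only one of the two criteria met; inactive = mean below 50 and not all replicates reaching 50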;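 also: 0% = plate neutral controls and 100% = maraviroc near 300 nM; one replicate is shown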
# CSC inhib: blocks cancer stem cells; cancer stem cell-like cells viability, luminescence; inhibition, % at 7.5 µM; 300,000 tested, 1.1% active; AID 2717;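 active = mean at 75% or more and at least half the replicates too; inconclusive = mean and replicates disagree; tested in HMLE shEcad cells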;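 also: 0% = median of negative and 100% = median of positive control wells; the first replicate is given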
# eIF4H inh: inhibitors of RNA binding by human eIF4H | Q15056 | eIF4H fluorescence polarization binding assay | inhibition, % at 35 µM | 290,000 tested, 0.94% active;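 active = 50% or more with normal probe brightness, or confirmed in later tests; inconclusive = above 50% with abnormal brightness, or retests that disagree; inactive = below 50% or failed in later tests; about a fifth of its hits are not listed in these tables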;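 also: calls also rest on retests at 20 µM and on dose response follow-up; 0% = protein and probe with vehicle and 100% = probe without protein; strong numbers were not always called active; many hits fall short of the cut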
# eIF4H inh retest: also measured in eIF4H inh; calls as there; inhibition, %; compound at 20 µM; confirmation average;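 mean of two retest wells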
# PABP FP inh retest: recorded beside PABP FP inh, whose call it bears; inhibition, %; compound at 20 µM; confirmation repeats;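 mean of two retest wells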
# MT1-MMP act inh RFP: second read-out of MT1-MMP act inh, no call of its own (marks repeat the call); RFP signal change, %; measured here: RFP expression control read;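 0 = vehicle wells; hits needed this value within 50% of zero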
# * hit, by the source's call; i = inactive; ? = inconclusive; . = no result given; + = active, no number; ! = repeats disagree.
SMILES,Yeast UUG start,MT1-MMP act inh,MT1-MMP act inh RFP,PABP FP inh,Rce1 inhib,HIV Env fusion,CSC inhib,eIF4H inh,others
Cc1ccccc1NC(=O)N1CCN(C/C=C/c2ccccc2)CC1,8,-5,-1,-11,i,-27,-9,-13,
C=CCN(CC=C)C(=S)NCCc1ccc(OC)c(OC)c1,-23,-3,0,8,i,22,-8,2,
O=C(NCc1ccccc1)C(c1ccc(Cl)cc1)N(C(=O)c1csnn1)C1CC1 (stereo unspecified),-14,-1,-3,1,.,7,-6,-12,
Cc1cc(=O)oc2cc(OCC(=O)OCC(=O)NC3CC3)ccc12,-8,2,4,-5,.,3,-5,-10,
O=C(Oc1c(Cl)cc(Cl)c2cccnc12)c1ccco1,.,4,-3,5,i,.,+,12,
Cc1noc(/C=C/c2ccccn2)c1[N+](=O)[O-],-24,1,-19,7,i,-14,19,4,
CCCNS(=O)(=O)c1ccc(NC(=O)c2cccnc2)cc1,13,-4,-7,-6,i,?,-7,-12,
COc1ccc(-c2c(NC(=O)c3ccco3)oc3c(C)cccc3c2=O)cc1OC,.,-4,-3,8,i,-3,-4,3,
CC(=O)Nc1ccc(S(=O)(=O)NC2=NCN(c3cccc([N+](=O)[O-])c3)CN2)cc1,-17,-1,-1,2,.,2,-3,-1,
COc1ccc(NC(=O)c2ccc(NC(=O)COC(=O)c3cnc(C)cn3)cc2)cc1,-17,7,6,.,i,-4,-15,.,
COc1ccccc1-c1cnc2c(c1)C(=O)N([C@@H](C)CO)C[C@@H](C)[C@H](CN(C)C(=O)c1cccnc1)O2,200*!,-1,4,.,.,16,.,.,
Cn1nnnc1SCc1ccc(C(=O)Nc2nccs2)cc1,-19,-5,1,-2,i,.,15,0,
CCC(Oc1ccccc1OC)C(=O)Nc1ccc2c(c1)OCO2 (stereo unspecified),-16,-3,1,-3,i,20,9,3,
Cc1cccc(Cn2cc(/C=C/[N+](=O)[O-])c3ccccc32)c1,-16,-4,-6,-4,i,-449,109*,-7,
Cc1ccc(S(=O)(=O)NC(C(=O)OCC(=O)NC(=O)c2cccn2C)C(C)C)cc1 (stereo unspecified),-2,-1,2,0,i,-9,-2,4,
Cc1cc(=O)oc2cc(NC(=O)C(CCCN=C(N)N)NC(=O)OCc3ccccc3)ccc12 (stereo unspecified),-7,7,1,-1,i,10,-19,1,
Cc1cccc(C(=O)Oc2ccc(/C=N/O)cc2)c1,9,4,2,-8,i,.,4,0,
COc1ccc(-c2nn(-c3ccccc3)cc2/C=N/Nc2ccc3ccccc3n2)cc1OC,.,1,-7,-6,i,.,5,78,eIF4H inh retest=-13;PABP FP inh retest=8
COc1ccc(CCNC(=O)COc2ccc(S(=O)(=O)N3CCOCC3)cc2)cc1OC,18,2,4,1,i,.,.,8,
COC(=O)CCC(=O)Nc1cc(Cl)cc(Cl)c1,.,0,5,1,i,-5,0,-2,
CCn1nnc(NC(=O)COc2ccc([N+](=O)[O-])cc2)n1,.,5,2,-6,i,6,-10,6,
Cc1cc(C)n2nc(SCC(=O)c3ccc[nH]3)nc2n1,-14,-4,-1,-8,i,-2,2,8,
CCCCN(C(=O)CN1C(=O)C2CC=CCC2C1=O)c1c(N)n(CCC)c(=O)[nH]c1=O (stereo unspecified),-14,1,0,-5,i,-49,1,-9,
Cc1cc(F)ccc1S(=O)(=O)N1CCCOC1CNC(=O)C(=O)NCc1ccc2c(c1)OCO2 (stereo unspecified),-13,2,-4,9,i,-16,11,7,
O=C(O)c1cc(NC(=O)c2ccc(Br)cc2)cc(NC(=O)c2ccc(Br)cc2)c1,-9,0,1,29,i,-12,-14,10,

# Next section.
SMILES,Yeast UUG start,MT1-MMP act inh,MT1-MMP act inh RFP,PABP FP inh,Rce1 inhib,HIV Env fusion,CSC inhib,eIF4H inh,others
COc1ccccc1N1CCN(C(C)C(=O)Nc2ccc(S(=O)(=O)N3CCOCC3)cc2)CC1 (stereo unspecified),.,-2,-7,-12,i,0,2,-1,
CCOc1cccc2c1OC1(C)CC2NC(=O)N1c1cccc(F)c1 (stereo unspecified),-3,-1,0,5,i,.,-15,0,
COc1ccc(NS(=O)(=O)c2ccc(OC)c(NC(=O)CCC3CCCC3)c2)cc1,.,1,4,9,i,.,4,11,
CCN(CC)C(=O)Cn1cc(S(=O)(=O)CC(=O)N2CCCCCC2)c2ccccc21,.,2,5,-7,i,5,14,-4,
N#C/C(=C\c1ccccc1[N+](=O)[O-])C(=O)Nc1ccc(S(N)(=O)=O)cc1,-8,-61,5,?,i,9,-17,?,
O=C(CSc1nnc(-c2cccnc2)n1CCc1ccccc1)NCc1ccccc1,-16,5,8,9,i,.,-10,7,
O=C(Nc1ccccc1C(=O)NCc1cccnc1)c1ccccc1F,-8,-1,4,-2,i,5,-3,-2,
COc1ccc(C(=O)N/N=C/c2c(CO)cnc(C)c2O)cc1,.,0,6,4,i,-4,12,17,
O=[N+]([O-])c1ccc(-c2nc(=S)c3c(o2)CCCC3)cc1,-12,-23,-10,10,i,4,-4,-6,
CCc1cc2c(=O)c(-c3cnn(-c4ccccc4)c3)c(C(F)(F)F)oc2c(CN(C)C)c1O,-6,-2,-3,8,i,29,.,1,
Cc1cc(C)cc(NS(=O)(=O)c2ccc3[nH]cc(C(=O)N4CCc5ccccc54)c(=O)c3c2)c1,.,0,2,6,i,-4,40,10,
Cc1ccc2nc(C)cc(C(=O)N/N=C/c3ccncc3)c2c1,-2,2,5,2,i,-20,-5,4,
CC(NC(=O)C12CC3CC(CC(C3)C1)C2)C(=O)N/N=C/C1=C(N2CCOCC2)C(=C\c2cccc([N+](=O)[O-])c2)/CC1 (stereo unspecified),-9,3,-14,10,i,13,3,11,
Cc1ccc(C)c(NC(=O)N2CCCCCC2)c1,-20,-3,2,-1,i,-1,12,0,
COc1ccccc1C1/C(=C(/O)c2ccc(C)cc2)C(=O)C(=O)N1CC(C)O (stereo unspecified),-16,1,-2,3,i,.,-13,-6,
O=C(NNc1cccc(Cl)n1)Nc1ccccc1,-21,-2,2,1,i,-4,5,-3,
Cc1ccc(N2C(=O)c3ccc(C(=O)O)cc3C2=O)cc1C,-7,-19,-33,13,i,-61,-16,2,
CC[C@@]1(C(=O)OC)N[C@H](CN(C)C(=O)Nc2ccc(Cl)cc2)[C@@H]2C(=O)N(C)C(=O)[C@@H]21,-11,2,0,.,.,-89,.,.,
O=C(Cc1ccccc1)N[C@@H](Cc1ccccc1)C(=O)O,-24,2,3,-3,i,-13,-5,-13,
CC1CCCC(C(=O)O)N1C(=O)CCSC(=O)c1ccccc1 (stereo unspecified),-9,-4,1,1,i,-46,-11,-2,
O=C(NC1CCS(=O)(=O)C1)OC1CCCCC1 (stereo unspecified),-2,7,5,-10,i,.,-4,1,
Cn1cc(S(=O)(=O)Nc2ccc(OC(F)(F)F)cc2)c(=O)n(C)c1=O,-17,-6,-5,0,i,-12,5,-1,
c1cc(-c2cc3cc(N4CCOCC4)ccc3o2)cs1,-15,-1,1,.,i,-391,0,.,
CCCC(=O)NC1=C(C#N)C2(CCCCC2)Cc2ccccc21,1,3,12,-4,i,.,-7,-3,
O=C(NNS(=O)(=O)c1ccccc1)c1cccnc1,.,1,6,-5,i,-1,-7,-8,

# Other records follow:
SMILES,Yeast UUG start,MT1-MMP act inh,MT1-MMP act inh RFP,PABP FP inh,Rce1 inhib,HIV Env fusion,CSC inhib,eIF4H inh,others
Cc1ccc(NC(=O)c2nc[nH]c2C(=O)N2CCc3ccccc3C2)cc1,-23,1,-3,.,.,-18,-17,.,
Cc1nn(C)cc1/C=N/n1nnnc1N,-7,2,-2,-1,i,-86,-1,-10,
COc1ccccc1NS(=O)(=O)c1cc(NC(=O)c2ccc3ccccc3n2)ccc1Cl,.,-1,-5,-12,i,5,-2,-2,
Cc1ccccc1NC(=O)c1ccc2ccccc2c1,-8,1,3,-2,i,-11,0,-6,
O=C(c1ccco1)N1CCN(Cc2nc3ccccc3c(=O)n2-c2ccc(F)cc2)CC1,-8,-5,4,-4,i,-71,-20,7,
O=C(Cn1cnc2ccc(Cl)cc2c1=O)c1cccs1,1,6,4,-2,i,.,-3,1,
N#CCCN(Cc1cccnc1)CN1C(=O)c2ccccc2C1=O,-4,-3,1,.,.,0,.,.,
CC(=O)c1ccc(NC(=O)Cc2cccs2)cc1,-16,-2,1,10,i,-14,-1,42,
Cc1c(C(=S)NC(=O)C2CC2)c(=O)n(-c2ccccc2)n1C,.,-7,3,1,i,2,6,0,
CC1=NN(Cc2ccccc2)C(=O)/C1=C/c1ccc(N(C)C)cc1,-20,7,3,-30,i,.,4,-18,
COc1ccc(CNc2ccc(S(=O)(=O)N3CCN(C)CC3)cn2)cc1OC,1,-4,-2,.,i,1,3,.,
O=C(NC1CCCC1)C(c1ccccn1)N(Cc1ccc(F)cc1)C(=O)c1csnn1 (stereo unspecified),-11,1,6,-7,i,34,-18,-9,
O=C(Nc1ccc(-c2cnco2)cc1)c1ccc(F)cc1F,.,4,6,-6,.,-59,-6,-8,
COc1ccc(S(=O)(=O)N2CCN(c3cccc(C)c3C)CC2)cc1,-10,3,-4,-6,i,-18,16,-1,
CC(C)S(=O)(=O)c1csc(NC(=O)Nc2ccc(Cl)cc2)c1Cl,.,-1,-16,-5,i,-6,40,6,
CCOc1ccc(C(=O)OCC(=O)NCc2ccco2)cc1OCC,.,-2,-2,12,i,.,-12,30,
O=C(Nc1ccc2c(c1)ncn2-c1ccccc1)c1ccco1,-10,-2,-1,7,i,-107,5,-13,
CCCC(=O)c1ccc(N2CCC(C)CC2)c(F)c1,.,2,1,2,i,-19,-7,-7,
COCCNc1oc(/C=C/c2ccc(F)cc2)nc1S(=O)(=O)c1ccccc1,-11,-1,-1,-12,i,-2,-7,-11,
COc1ccc(N2C(=O)/C(=C/c3cccs3)NC2=S)cc1,-9,1,0,1,i,.,-10,2,
COc1ccc(CNC(=O)CSc2nc3ccc(OC)cc3[nH]2)cc1,-9,1,0,2,i,6,-5,-6,
COc1cccc(C(=O)Nc2nc(C)cs2)c1,-5,-4,1,2,i,-135,-4,2,
CCOC(=O)c1c(-c2cccc(C)c2)csc1NC(=O)c1c(-c2ccccc2)noc1C,-14,-10,-5,-16,i,.,-2,-9,
COc1ccccc1NC(=O)Nc1nc(CC(=O)NCc2c(F)cccc2F)cs1,-2,4,-8,.,i,-153,-8,.,
CC1(C)C2([N+](=O)[O-])CN3CC1([N+](=O)[O-])CN(C2)C31CCCC1,.,8,4,-15,i,.,6,-7,
O=c1[nH]c2ccc(S(=O)(=O)Nc3ccc(-c4nnc5n4CCCCC5)cc3)cc2o1,-14,-13,-2,18,i,-23,-11,30,

# Arranged by molecular weight (smallest number first): some entries from above.
SMILES,Yeast UUG start,MT1-MMP act inh,MT1-MMP act inh RFP,PABP FP inh,Rce1 inhib,HIV Env fusion,CSC inhib,eIF4H inh,others
CCCC(=O)c1ccc(N2CCC(C)CC2)c(F)c1,.,2,1,2,i,-19,-7,-7,
Cc1ccc(NC(=O)c2nc[nH]c2C(=O)N2CCc3ccccc3C2)cc1,-23,1,-3,.,.,-18,-17,.,
CC(C)S(=O)(=O)c1csc(NC(=O)Nc2ccc(Cl)cc2)c1Cl,.,-1,-16,-5,i,-6,40,6,
COCCNc1oc(/C=C/c2ccc(F)cc2)nc1S(=O)(=O)c1ccccc1,-11,-1,-1,-12,i,-2,-7,-11,
COc1ccc(CNc2ccc(S(=O)(=O)N3CCN(C)CC3)cn2)cc1OC,1,-4,-2,.,i,1,3,.,
